Screening data as filed in PubChem.
Cruzain noTriton – blocks cruzain activity in detergent-free assay; P25779; purified cruzain, Z-FR-AMC fluorescence, no detergent; Potency, µM, for the others: max response, negative = inhibition, usual class: inhibitors; 2.3% of 200,000 active; AID 1476;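 also: plate controls were enzyme without inhibitor for no effect and buffer without enzyme for full effect; nearly all actives have a fitted effect of over 40% in size; top concentration of the series not given in the record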
Target sequence (P25779 123-467 limits assumed): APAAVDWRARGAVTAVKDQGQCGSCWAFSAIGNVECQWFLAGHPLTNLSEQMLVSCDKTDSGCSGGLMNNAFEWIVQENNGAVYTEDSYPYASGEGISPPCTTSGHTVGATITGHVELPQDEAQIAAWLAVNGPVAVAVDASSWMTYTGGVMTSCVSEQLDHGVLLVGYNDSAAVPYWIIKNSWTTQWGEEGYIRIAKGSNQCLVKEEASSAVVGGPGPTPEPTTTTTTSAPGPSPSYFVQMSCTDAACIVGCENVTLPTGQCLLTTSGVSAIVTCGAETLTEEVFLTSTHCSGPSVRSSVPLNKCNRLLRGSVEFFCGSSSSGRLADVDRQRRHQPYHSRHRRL
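Detergent-free condition (0.00005% Triton X-100) in acetate buffer pH 5.5 with DTT. 1.5 nM enzyme and compound were pre-mixed 15 min, then 2 uM Z-FR-AMC substrate added; reaction progress from fluorescence change between first and third reads (60 s).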
SARS PLP yeast – blocks SARS-CoV papain-like protease in a yeast assay | S. cerevisiae expressing SARS-CoV PLpro, growth rescue; control for the full effect not named in the record | Potency, µM (top dose mostly 32.9 µM), inactives show at the top dose activity, positive = growth rescue | 0.19% of 330,000 active | AID 485353; active means well fitted rising curve with a large enough effect; inconclusive means small, poorly fitted or top-dose-only effect; inactive means no such curve, though single readings can be large or run the other way; also: 0% is about no effect; nearly all actives have a fitted effect of over 55% in size; growth read by luminescence after 48 h
NS1 inh – blocks influenza NS1 protein function; AID 2326; Potency, µM (doses to about 46.1 µM), for inactives: at the highest dose activity, positive = more growth; S. cerevisiae slowed by influenza A NS1, growth recovery by OD600; 0.4% of 270,000 active; active means well fitted rising curve with a large enough effect; inconclusive means small, poorly fitted or top-dose-only effect; inactive means no such curve, though single readings can be large or run the other way; also: nearly all actives have a fitted effect of over 50% in size
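S. cerevisiae expressing influenza A NS1, grown in glucose, washed, then diluted 1:100 into pH 6.0 -URA galactose medium with 23 nl compound. Growth recovery read as OD600; NS1-free strain serves as control.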
RE007 growth inh – less growth of the S. pombe RE007 Vpr strain. 0.21% of 360,000 active. S. pombe RE007 Vpr strain, BacTiter-Glo ATP luminescence, 24 h; control for the full effect not named in the record. Potency, µM (titrated, usually from 92.2 µM), for the others: at the top dose activity change, negative = less growth; active = well fitted falling curve with a large enough effect; inconclusive = small, poorly fitted or top-dose-only effect; inactive = no such curve, though single readings can be large or run the other way;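 also: % is scaled to controls: 0 for no effect and ±100 for the full control effect; nearly all actives have a fitted effect of over 50% in size; the assay follows cell death caused by Vpr and the record does not say whether a fall means rescue or toxicity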
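Fission yeast RE007 carrying one integrated HIV-1 vpr copy, seeded at OD 0.01 in PMG+AL medium with 23 nL pinned compound. Grown 24 h at 30 degrees; viability read by BacTiter-Glo luminescence after 5 min.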
StopGo reporter – lowers the luciferase signal of an FMDV 2A StopGo reporter | 1.2% of 410,000 active | Potency, µM (doses to about 57.9 µM), without a hit: top-dose signal change, negative = less light | human cells with a luciferase reporter of 2A StopGo recoding; control for the full effect not named in the record | AID 1159524; active = well fitted falling curve with a large enough effect; inconclusive = small, poorly fitted or top-dose-only effect; inactive = no such curve, though single readings can be large or run the other way; tested in HEK293T cells; also: % is scaled to controls: 0 for no effect and ±100 for the full control effect; nearly all actives have a fitted effect of over 45% in size; luciferase light after 4 h
Marburg entry inh – blocks Marburg virus binding to or entry into cells. Marburg virus pseudotyped entry inhibition, cell reporter; control for the full effect not named in the record; about a third of the inactives were read at about 46 µM. Potency, µM (series often up to 37.8 µM), for inactives: at the highest dose activity change, negative = inhibition, usual class: inhibitors. 1.8% of 300,000 active; active = well fitted inhibition curve with a large enough effect; inconclusive = small, poorly fitted or top-dose-only effect, or effect the other way; inactive = flat fitted curve, though single readings scatter; tested in HEK293 cells; about a fifth of its hits are not listed in these tables; also: % is scaled to controls: 0 for no effect and ±100 for the full control effect; luciferase read-out
Lassa entry inh – blocks Lassa virus binding to or entry into cells | Potency, µM (top dose mostly 37.9 µM), for inactives: top-dose activity change, negative = inhibition, hits mostly inhibitors | Lassa virus pseudotype entry inhibition, cell reporter; control for the full effect not named in the record | 1.2% of 300,000 active; active means well fitted inhibition curve with a large enough effect; inconclusive means small, poorly fitted or top-dose-only effect, or effect the other way; inactive means flat fitted curve, though single readings scatter; tested in HEK293 cells; also: % is scaled to controls: 0 for no effect and ±100 for the full control effect; nearly all actives have a fitted effect of over 50% in size; luciferase read-out
Cruzain inh Det – blocks cruzain activity in presence of Triton detergent | P25779 | purified cruzain, Z-FR-AMC fluorescence, 0.01% Triton | Potency, µM, for the others: max response, negative = inhibition, usual class: inhibitors | 0.43% of 200,000 active | AID 1478;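 also: plate controls were neutral wells for no effect and buffer without enzyme for full effect; nearly all actives have a fitted effect of over 40% in size; top concentration of the series not given in the record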
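Steps: dispense cruzain (1.5 nM final) in acetate buffer pH 5.5 with DTT and 0.01% Triton X-100; pin-transfer compounds; incubate 15 min RT; add Z-FR-AMC (2 uM final); read fluorescence every 30 s, using the 60 s intensity change.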
* = called active by the depositor; ? = inconclusive; · = no result given; & = joins results of further samples; [ ] = dose if it differs, or a comment. Unless noted, calls follow the shape of the dose curve; as a rule, active = well fitted curve in the direction sought with a large enough effect; inconclusive = small, poorly fitted or top-dose-only effect, or another doubt; inactive = no such curve, though single readings can be large; an effect the other way counts as inactive or inconclusive. Potency is read from the fitted curve at half-maximal effect.

Order of values: Cruzain noTriton, SARS PLP yeast, NS1 inh, RE007 growth inh, StopGo reporter, Marburg entry inh, Lassa entry inh, Cruzain inh Det
O=c1oc2cc(Br)ccc2n1CSC1=NCCS1
    -15.3%, -2.9%, -38.8%, ?, -4.4%, 7.9%, -1.2%, 1.5%
Cc1ccc(Cl)c(NC(=O)CSc2cccc[n+]2[O-])c1Cl
    ·, 3.5%, ·, 5.1%, -0.3%, 5.2%[46.1 µM], 11.3%[46.1 µM], ·
Cn1c(N/N=C/c2cc3ccccc3nc2Cl)nc2ccccc21
    6.1%, -58.6%, -23.6%, -10.6%, -10.2%, ?, ?, -3.6%
Cc1ccccc1C(=O)Nc1ccc2nc(SCC(=O)N3CCc4ccccc43)sc2c1
    10µM*, ·, ·, ·, -12.8%, ?, ?, -1.3%
CN(C)S(=O)(=O)c1ccc(C(=O)OCC2CCCO2)cc1 (stereo unspecified)
    ·, 0.1%, -1.8%, 2.0%, 16.4%, -0.6%, 10.7%, ·
CCOC(=O)CON1C(=O)C(C)(C)N(OCC(=O)OCC)C(=O)C1(C)C
    3.1%, -2.0%, -3.7%, -0.6%, -2.9%, 5.0%, 6.3%, 1.4%
C=CCNc1nc2c(c(=O)n(C)c(=O)n2C)n1CCCCCC
    2.0%, 0.0%, -7.6%, 0.8%, 14.1µM*, ?, -42.4%, 3.0%
COc1cccc(-n2c(SCC(=O)NC3CCCC3)nnc2-c2ccco2)c1
    6.3%, -0.9%, -20.1%, 7.4%, 25.3%, -2.1%[46.1 µM], 4.4%, -0.4%
O=c1c(O)c(-c2ccc(O)cc2)oc2cc(O)cc(O)c12
    ?, ·, ·, 7.0%, 50.7%[activator], ·, ·, -22.4%&-20.0%&-22.5%
COc1ccc(O)c(/C=N/NC(=O)c2ccc(CSc3nc(C)cc(C)n3)cc2)c1
    7.3%, ?, 18.7%, 8.4%, ?, ?, ?, -3.8%
CCOc1ccc(NC(=O)CC2C(=O)N(c3ccc(OC)cc3)C(=O)N2Cc2ccc(OC)cc2)cc1 (stereo unspecified)
    ·, -0.7%, 2.2%, -3.7%, -11.1%, ·, ·, ·
CCn1cc(C(=O)NCC2CCCO2)c(=O)c2cc(S(=O)(=O)N3CCC(C)CC3)ccc21 (stereo unspecified)
    ?, 0.7%, 9.5%, 2.8%, 2.6%, -1.8%, 22.4%, -6.6%
O=C(COc1coc(CN2CCc3ccccc3C2)cc1=O)Nc1cccc([N+](=O)[O-])c1
    ·, 0.7%, ·, 27.4%, -7.8%, -8.4%, 22.4%, ·
CCC(C)(C#CCN1CCCCC1)OCCC#N (stereo unspecified)
    -10.2%, -0.8%, -5.6%, 4.2%, -17.4%, -0.6%, 1.6%, -2.3%
COC(=O)c1cn(C(=O)c2ccco2)c2ccccc12
    -4.7%, -5.5%, -0.9%, -16.2%, -13.3%, ?, -1.7%, -4.7%
Cc1ccc(N2C(=O)CCSC23C(=O)Nc2ccccc23)cc1 (stereo unspecified)
    4.6%, ·, 13.5%, 10.1%, -19.9%, 7.3%, ?, 5.7%
O=c1cc(N2CCCC2)c2ccccc2o1
    ·, 0.6%, -4.6%, 12.9%, -7.1%, 10.9%[46.1 µM], -14.4%, ·
Cn1cc(C(=O)Nc2cccc(F)c2)cn1
    0.8%, -5.5%, -23.0%, 1.0%, 2.6%, -1.3%, 19.3%, 9.7%
Cc1cccc(C)c1NC(=O)c1ccccc1C(=O)O
    ·, -3.8%, 6.8%, 22.7%, 24.7%, ·, ·, ·
COc1ccc(NC(=O)C2CCCNC2=O)cc1 (stereo unspecified)
    ·, 0.5%, 0.3%, 18.1%, -8.5%, ·, ·, ·
CCc1cc(C(N)=O)c(NC(=O)c2ccc(OC)cc2)s1
    -3.0%, -71.0%, -59.6%, -26.9%, 76.3%[activator], ?, 3.3%, -12.5%
N=c1c(C(=O)NCc2ccc3c(c2)OCO3)cc2c(=O)n3ccccc3nc2n1CC1CCCO1 (stereo unspecified)
    ·, -13.8%, -2.2%, -3.9%, 3.5%, ·, 1.2%[46.1 µM], ·
O=C(N/N=C\c1cccc(OC(=O)c2ccco2)c1)c1ccc2c(c1)OCO2
    -1.5%, 26.7%, -2.3%, -19.0%, ?, ?, 14.6µM*, -5.9%
Cc1cc(/C=C2/SC(=O)N(CC(=O)OC(C)C)C2=O)c(C)n1C
    0.1%, -0.3%, 2.6%, -17.4%, ·, -1.3%, 28.3%, -9.7%
Cc1ccccc1-n1c(SCC(=O)c2ccccc2)nnc1-c1ccc(F)cc1
    2.2%, ·, ·, ·, 26.0%, ·, ?, -0.3%
CCc1ccc(NC(=O)Cn2c(=O)n(CCC(=O)NCc3ccc4c(c3)OCO4)c(=O)c3ccccc32)cc1
    -13.9%, ·, ·, ·, 3.0%, 6.0%[46.1 µM], -4.4%[46.1 µM], -0.9%
COc1cccc(CNC(=S)Nc2cc(OC)ccc2OC)c1
    ·, 0.0%, -7.8%, -4.6%, 45.7%[activator], 0.5%[46.1 µM], 0.7%, ·
CCN(C(=O)CSc1nc2ccccc2c(=O)n1Cc1ccc(C)cc1)C1CCS(=O)(=O)C1 (stereo unspecified)
    ·, 29.6%, ·, 6.6%, -5.6%, -23.7%[46.1 µM], 9.1%, ·
COc1ccc(/C(N)=N/OC(=O)CCC2CCCC2)cc1
    ·, 4.6%, -13.0%, 3.6%, 20.3%, ·, ·, ·
COCCNC(=O)C(Cc1c[nH]c2ccccc12)NC(=O)OCc1ccccc1 (stereo unspecified)
    ·, 7.0%, 11.5%, -3.1%, -5.4%, -17.5%[46.1 µM], -14.1%[46.1 µM], ·

2 compounds from above, showing only Marburg entry inh, SARS PLP yeast and Lassa entry inh:
| SMILES | Marburg entry inh | SARS PLP yeast | Lassa entry inh |
| --- | --- | --- | --- |
| N=c1c(C(=O)NCc2ccc3c(c2)OCO3)cc2c(=O)n3ccccc3nc2n1CC1CCCO1 (stereo unspecified) | · | -13.8% | 1.2%[46.1 µM] |
| COCCNC(=O)C(Cc1c[nH]c2ccccc12)NC(=O)OCc1ccccc1 (stereo unspecified) | -17.5%[46.1 µM] | 7.0% | -14.1%[46.1 µM] |

(more compounds)
Order of values: Cruzain noTriton, SARS PLP yeast, NS1 inh, RE007 growth inh, StopGo reporter, Marburg entry inh, Lassa entry inh, Cruzain inh Det
O=C(N/N=C\c1cc([N+](=O)[O-])ccc1N1CCOCC1)c1ccccn1
    ·, 5.2%, 2.2%, 3.3%, -18.3%, ?, -26.3%, ·
Oc1ccc(-c2csc(Nc3ncccn3)n2)cc1
    ·, -4.2%, 14.5%, -10.4%, 9.8%, ·, ?, ·
CCCCN(CC)CCNC(=O)c1cc2c(C)nc3ccccc3c2o1
    -2.3%, 19.8%, -13.0%, -7.9%, 0.0%, ·, ·, -1.9%
COc1ccc(Cl)cc1S(=O)(=O)N1CCN(C(=O)c2cc(OC)c(OC)c(OC)c2)CC1
    ?, 13.4%, -10.2%, -4.9%, -18.0%, ?, -0.5%, -0.9%
O=C(c1ccccc1)c1ccc(OCCCCN2CCCCC2)cc1
    11.4%, 1.2%, 4.5%, -2.1%, -16.7%, ?, -19.0%, 4.8%
CCCCCOP(=O)(OCCCCC)C1(NS(=O)(=O)c2ccccc2)C=CC(=O)c2ccccc21 (stereo unspecified)
    3.1%, -9.9%, 6.0%, -17.3%, -12.1%, ?, ?, -12.8%
CCCN(CCC)Cc1c(C(=O)N/N=C/C(C)=C\c2ccccc2)nnn1-c1nonc1N
    ·, 1.8%, -6.2%, -7.6%, 49.7%[activator], ?, -28.9%[46.1 µM], ·
COc1ccc(-n2ncc3c(NCCC4=CCCCC4)ncnc32)cc1
    9.3%, ·, ·, ·, -5.1%, ·, 5.4%[46.1 µM], 1.3%
CSCC[C@H](NC(=O)C1CCN(S(=O)(=O)c2ccc(C)cc2)CC1)C(=O)NCC1CCCO1 (stereo partly specified)
    14.3%, -7.3%, -13.1%, 7.1%, 8.6%, -7.3%, 0.0%, -1.5%
O=C(CSc1nnnn1-c1ccccc1)Nc1ccc(Cl)cc1
    -8.8%, ·, 8.8%, 8.8%, 8.0%, -5.8%, ?, 0.5%
CCOC(=O)N1CCN(S(=O)(=O)c2c(C)cc(C)cc2C)CC1
    3.1%, -1.0%, -13.2%, 5.8%, -14.1%, ?, -0.7%, -0.6%
Cc1ccc(CNC(=O)c2ccccc2NC(=O)CSc2nnnn2C)cc1
    -8.4%, 0.2%, -3.0%, 9.4%, ?, ?, ?, 0.6%
O=C(CN(Cc1ccc(F)cc1)S(=O)(=O)c1ccccc1)N1CCCCC1
    -1.6%, 0.6%, -10.1%, 9.8%, 1.6%, 1.4%, ?, -0.9%
O=C(NCCc1ccccc1)C1CCCN(S(=O)(=O)c2cccc3nsnc23)C1 (stereo unspecified)
    -2.2%, 22.8%, -4.9%, 2.3%, -25.2%, -6.3%, 0.1%, -2.8%
Cc1cccc(C(=O)OCC(=O)NC(=O)Cc2ccccc2)c1O
    ·, -6.0%, -19.8%, 0.2%, -9.6%, 9.3%[46.1 µM], ?, ·
CN(CCOc1ccccc1)C(=O)C1CCN(C(=O)c2ccc(F)cc2)CC1
    ·, 4.2%, -0.7%, -11.9%, 2.3%, 3.2%, 8.4%, ·
Cc1cccc(-c2nsc(SCC(=O)NCC3CCCO3)n2)c1 (stereo unspecified)
    ·, -1.0%, ·, -3.8%, 32.8%[activator], -2.2%, 3.3%, ·
COc1nc(NCc2ccco2)nc(NC2CCCCC2)n1
    -5.5%, -3.6%, -10.5%, -6.1%, 45.8%[activator], -18.6%, -23.5%, -4.5%
COc1cc(NC(=O)c2ccccc2)c(OC)cc1NC(=O)Cc1ccccc1
    ·, -2.2%, 13.9%, 3.2%, -19.5%, -11.4%, -25.2%, ·
CCn1cc(C(=O)Nc2sc(C)c(C)c2C(=O)OC)cn1
    ?, -4.3%, -26.8%, 5.6%, -6.1%, ?, 6.3%, -10.7%
